PrP UTR inh: suppresses PrP 5' UTR mRNA reporter expression; inhibition, % (no concentration beside the values); AID 488862; cell-based PrP 5' UTR mRNA reporter, plate reader; actives 0.35% (n = 340,000);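 active means every replicate at 50% or more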;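 further: 0 = median of the neutral control wells; tested in H4 reporter cells; numbers are from one replicate; inactives centre near -14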
BJeLR viability: BJeLR cell viability loss. actives 0.17% (n = 300,000). BJeLR (HRASV12) viability, CellTiter-Glo ATP luminescence, 48 h; reference of the scale not given here. inhibition, % (concentration not given with the values);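 active means replicate mean above 50%; inconclusive means above 50% but judged a plate artefact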;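 further: 50 nL library stock added to about 25 µL; numbers are from one replicate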
Autofluor counter: compound fluorescence in toxin protease inhibitor counterscreen; compound autofluorescence counterscreen, microsphere flow cytometry; active compounds read high; fluorescence intensity (no concentration beside the values); actives 3.1% (n = 360,000); AID 624483;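 active means at least 3 SD above the mean of all compounds, about 16000 in these data; inconclusive means too few beads counted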;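 further: 100 nL of 1 mM stock went into each well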
RN4220 kill: kills Staphylococcus aureus RN4220; inhibition, % (no concentration beside the values); S. aureus RN4220 growth, OD600, 16 h; AID 1259311; actives 0.33% (n = 330,000);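 active means z-score of -3 or lower and OD600 up to 0.18 on both plates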;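 further: plate controls were untreated cells for no effect and reference antibiotic for full effect; stock transfer was 100 nL into about 80 µL; one replicate is shown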
Mtb hypoxia inh: reduces hypoxia-regulated biosensor signal in M. tuberculosis | M. tuberculosis hypoxia-regulated fluorescent reporter, fluorescence | fluorescence inhibition, % (test concentration not listed) | actives 0.1% (n = 300,000) | AID 1159583;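 active means 35 to 45% if threefold the growth effect, above 45% if 1.5-fold the growth effect; inactive means the rest, general growth blockers included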;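 further: wells of about 50 µL received 100 nL stock; 0% = vehicle wells and 100% = reference inhibitor wells; whole bacteria with a GFP reporter of the hypoxia response; strong numbers were not always called active; many hits fall short of the cut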
ugtP null kill: kills S. aureus RN4220 lacking UgtP. S. aureus RN4220 ugtP deletion, OD600 growth, 16 h; some inactives read as strong as hits. growth inhibition, % (no concentration beside the values). actives 0.54% (n = 330,000). AID 1259309;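 active means z-score under -3 and OD600 up to 0.15 on both plates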;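 further: plate controls were untreated wells for no effect and antibiotic for full effect; wells of about 80 µL received 100 nL stock; the first replicate is given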
Mtb hypoxia inh growth: further read-out of Mtb hypoxia inh, marked with its call; growth inhibition, %; measured here: M. tuberculosis growth (absorbance);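 0% = vehicle and 100% = reference antibiotic; read after six days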
* = called active by the depositor; u = inconclusive; x = not tested or not shown; & = joins results of further samples.

SMILES	Mtb hypoxia inh	Autofluor counter	RN4220 kill	Mtb hypoxia inh growth	ugtP null kill	PrP UTR inh	BJeLR viability
CC(=O)Nc1ccc(NC(=O)c2ccc(C3SCC(=O)N3CCc3ccccc3)cc2)cc1 (stereo unspecified)	3	9972	6.6	15	-2	-22	4
CCCCC(=O)NC(c1ccc(Cl)cc1Cl)c1ccc2cccnc2c1O (stereo unspecified)	x	3224	x	x	x	42	31
CCC(=O)N(CC(=O)Nc1sc(C)c(C)c1C(N)=O)Cc1ccc(F)cc1	-3	5041	3.6	5	15	-3	-5
CCOc1ccc(Br)cc1S(=O)(=O)Nc1ccc(C(=O)OC(C)C(=O)N(C)c2ccccc2)cc1 (stereo unspecified)	6	2559	-1.5	5	6	-13	-10
CCCCN(C(=O)Cc1ccc(S(=O)(=O)N2CCOCC2)s1)c1c(N)n(CC(C)C)c(=O)[nH]c1=O	4	u	3.2	0	9	12	x
O=C(CS(=O)(=O)c1ccccc1)Nc1nccs1	2	4423	-2.3	-3	3	-23	-6
O=c1[nH]c2ccccc2n1Cc1ccccc1	5	5277	6.7	2	14	-8	-2
C[C@H]1CCC[C@@H](O)CCC/C=C/c2cc(O)cc(O)c2C(=O)O1	x	20416*	x	x	x	3	-2
Cc1cc(NC(=O)CSCCc2ccncc2)no1	3	5028	-4.0	-6	-6	-22	-4
CCOC(=O)Cc1csc(NC(=O)C(C)(C)CC)n1	7	10344	8.7	3	7	-54	-11
COc1cc(OC)cc(C(=O)NC(C(=O)NNC(=O)c2ccc(C)cc2)C(C)C)c1 (stereo unspecified)	10	u	0.4	14	-3	-5	x
O=C(c1cccc(F)c1)N1CCN(Cc2ccco2)CC1	x	2524	2.1	x	-3	-4	0

3 entries from above, field by field:
C[C@H]1CCC[C@@H](O)CCC/C=C/c2cc(O)cc(O)c2C(=O)O1
  Mtb hypoxia inh: x
  Autofluor counter: 20416*
  RN4220 kill: x
  Mtb hypoxia inh growth: x
  ugtP null kill: x
  PrP UTR inh: 3
  BJeLR viability: -2
Cc1cc(NC(=O)CSCCc2ccncc2)no1
  Mtb hypoxia inh: 3
  Autofluor counter: 5028
  RN4220 kill: -4.0
  Mtb hypoxia inh growth: -6
  ugtP null kill: -6
  PrP UTR inh: -22
  BJeLR viability: -4
CCOC(=O)Cc1csc(NC(=O)C(C)(C)CC)n1
  Mtb hypoxia inh: 7
  Autofluor counter: 10344
  RN4220 kill: 8.7
  Mtb hypoxia inh growth: 3
  ugtP null kill: 7
  PrP UTR inh: -54
  BJeLR viability: -11

Additional records
SMILES	Mtb hypoxia inh	Autofluor counter	RN4220 kill	Mtb hypoxia inh growth	ugtP null kill	PrP UTR inh	BJeLR viability
O=c1cc(CNC2CCCCC2)c2ccccc2[nH]1	1	8872	6.6	11	-6	-7	-7
O=C(O)c1ccc([N+](=O)[O-])c([N+](=O)[O-])c1	10	3825	-0.9	2	10	-25	x
O=C(NN=Cc1cn(Cc2ccccc2)c2ccccc12)c1cc(O)cc(O)c1	-1	x	-3.1	-2	3	x	x
CCc1nc(SCC(=O)NC2CC2)c2c(C)c(C)sc2n1	8	3436	-1.0	-4	11	-13	-1
Cc1nc(Cl)cc(CS(=O)(=O)c2ccc(Cl)cc2)n1	12	4535	3.2	8	1	-21	8
N#C/C(=C/c1cn(-c2ccccc2)nc1-c1cccc(OCc2ccc(F)cc2)c1)C(=O)NCCCn1ccnc1	6	2231	7.4	-8	15	0	14
COc1ccc(C2=[N+]([O-])C(C)(C)C(c3ccccc3)=N2)cc1	8	4588	6.7	10	9	-17	2
Cc1cccc(N/C(N)=N/c2nc(C)cc(=O)[nH]2)c1	0	3106	6.8	4	6	-23	2
CC(=O)C(C(c1ccccc1)N1CCCc2ccccc21)N1CCOCC1 (stereo unspecified)	23	5480	2.3	9	7	-30	x
CCN(CCn1cccn1)Cc1cn[nH]c1-c1ccc(-c2ccccc2)cc1	6	2255	7.0	6	3	-29	-7
COc1cc(OC)cc(C(=O)NNC(=O)c2cc(S(=O)(=O)N3CCOCC3)ccc2F)c1	7	x	5.2	2	12	8	x
Cn1cc(Br)c(NC(=O)/C=C/C(=O)O)n1	8	3585	3.7	-1	8	-20	10
O=c1c(-c2ccc(Br)cc2)coc2c(CN3CCCCC3)c(O)ccc12	-2	4066	-0.3	8	4	-57	21
Cc1ccc(S(=O)(=O)NCC2CCC(C(=O)NCCCN3CCOCC3)CC2)cc1 (stereo unspecified)	x	4355	-1.9	x	-1	-28	3
COc1ccc2c(Cl)c(C(=O)NCc3ccco3)sc2c1	0	11575	3.6	12	0	-50	2
Cc1nn(-c2ccccc2)c(C)c1C(=O)OCC(=O)Nc1cccc(S(N)(=O)=O)c1	6	3442	1.6	9	4	-5	x
O=C(NCc1ccco1)Nc1cccc2ccccc12	25	3560	2.9	21	1	-21	x
O=c1c2cn[nH]c2[nH]c(=S)n1-c1cccc(Cl)c1	-4	9727	6.8	-3	10	-81	-1
COc1ccc(-c2cnc3c(c2)CCC3(C#N)C#N)cc1	17	10042	3.8	15	3	-14	14
Cc1cc(=O)[nH]c(N/N=C/c2c(C)oc3ccccc23)n1	x	3358	x	x	x	-16	10
Cc1nnc(NC(=O)CCSc2ccccc2)s1	6	16606*	3.0	5	9	-27	8
Cc1cccc(NC(=O)c2ccc(Cl)c(S(=O)(=O)N3CCCC3)c2)n1	-11	6196	6.3	4	0	-23	4
O=C(C1CCN(S(=O)(=O)N2CCOCC2)CC1)N1CCN(Cc2ccc3c(c2)OCO3)CC1	12	2379	-11	-4	-4	-20	x
CN(Cc1ccccc1)C(=O)c1cccc(NC(=O)Cc2cccc([N+](=O)[O-])c2)c1	7	4134	5.2	0	0	-7	x
Cc1ccc(S(=O)(=O)NCC(c2cccnc2)N(C)C)cc1 (stereo unspecified)	6	4595	5.0	1	4	-29	5
O=C(CSC1c2ccccc2-c2ccccc21)NN=Cc1ccccc1	2	x	-4.6	7	-41	x	x
O=C(COC(=O)c1cc(S(=O)(=O)N2CCCCC2)ccc1N1CCOCC1)NCCc1ccc(F)cc1	9	3312	1.0	-2	4	-3	-10
O=C(NCc1ccco1)C(=S)N1CCCC1	0	4560	8.9	9	5	-4	-2
CCOC(=O)c1ccc(NC(=S)N(CCCN2CCN(CC)CC2)Cc2ccco2)cc1	-2	4610	3.7	-4	3	-21	-2
Cc1ccc(OCC(=O)Nc2ccc3c(c2)OCO3)c(C)c1	9	3991	22	9	6	-39	9
Cc1cc2[nH]c(=O)c(=O)[nH]c2cc1S(=O)(=O)Nc1cccc(Cl)c1C	x	6160	3.9	x	8	-7	7
O=C(NC1CCCCCCC1)C1CCC(CNc2c(N3CCCC3)c(=O)c2=O)CC1 (stereo unspecified)	12	5174	-1.1	11	5	-37	1
Cc1ccc(CNC(=S)Nc2ccc(OC(F)F)cc2C)cc1	1	2565	-3.1	1	-7	-3	2
CN(C(=O)c1ccncc1)c1nnc(-c2cccnc2)s1	x	4506	0.7	x	3	-30	2
CCCCCCNC(=O)NC(Cc1ccc(O)cc1)C(=O)NCCCC1CN2C(=NCC2C)N1CC1CCC1 (stereo unspecified)	-2	x	4.5	10	2	x	x
Nc1nonc1-n1nnc(C(=O)O)c1-c1cccs1	9	4459	2.5	4	11	-14	0
C/C(=N/NC(=O)c1ccncc1)c1ccc(NC(=O)c2ccc(Cl)cc2Cl)cc1	x	5582	x	x	x	-64	-13
CC(=O)Nc1ccc(OCC(O)CN2CCN(c3ccc(F)cc3)CC2)cc1 (stereo unspecified)	5	3335	-0.1	0	-3	15	-2
O=C(Nc1nccs1)C(c1ccccc1)N1CCCC1 (stereo unspecified)	8	3776	2.7	4	5	-10	-9
COc1cc(CCC(=O)OCC(=O)Nc2ccc(F)c(F)c2)cc(OC)c1OC	8	4153	-1.9	4	1	-15	-3
Oc1ccc(Cl)cc1CNCc1ccc(C(F)(F)F)cc1	x	2996	7.9	x	7	-30	x
CC(C)CCN(CCC(C)C)C/C(O)=C(\C#N)c1nc(-c2ccccc2)cs1	11	10760	-5.6	2	10	-16	-9
CC1=CC(=O)C(C(C)C)=CC1=NOC(=O)c1cccc([N+](=O)[O-])c1	5	x	6.0	0	-2	x	x
O=C(COC(=O)/C=C/c1cccc(C(F)(F)F)c1)NCc1ccc(F)cc1	7	2477	4.2	3	-2	4	4
CC(C)(C)n1nc2c(c1NC(=O)c1cc(Cl)ccc1[N+](=O)[O-])CS(=O)(=O)C2	11	5483	7.1	8	9	-17	8
O=C(NC1CCCCC1)c1cccc(OCc2ccccc2)c1	4	4035	4.5	-6	8	-15	0
COCCNC(=S)N1CCN(c2nc3ccccc3s2)CC1	11	4860	2.4	3	-5	-32	5
COc1ccc(-c2cc(C(F)(F)F)n3nc(C(=O)Nc4cc(C)on4)cc3n2)cc1OC	x	2754	-1.1	x	5	-5	x
Cc1cc(C)cc(OCC(=O)OCC(=O)c2ccc3c(c2)NC(=O)CO3)c1	13	4666	6.8	8	2	2	-10
COc1ccc(N(C(=O)CNC(=O)c2ccco2)C(C(=O)NC2CCCCC2)c2cccnc2)cc1 (stereo unspecified)	-4	5233	5.8	0	8	-24	-2
O=C(COC(=O)CNS(=O)(=O)c1ccccc1)NC12CC3CC(CC(C3)C1)C2	16	3282	5.5	2	5	-14	5
Cc1nc2ccccn2c1P(=Nc1ccccc1)(N(C)C)N(C)C	3	7780	9.5	12	-4	-44	7
CCCNC(=O)C(Cc1cccc(OC)c1)NC(=O)c1ccc(C(C)(C)C)cc1 (stereo unspecified)	9	4047	0.1	6	7	-12	x
Cc1cc(O)c(C(=O)/C=C/c2c(F)c(F)c(F)c(F)c2F)c(=O)o1	x	3544	x	x	x	9	-4
COc1ccc(CN2C(=O)C(Cc3ccccc3)Nc3ncnc(N4CCOCC4)c32)cc1 (stereo unspecified)	-6	2998&9063	1.0	9	-2	-28	-9
CCN(CC)C(=O)COc1ccc(Br)cc1Cl	9	9170	5.5	13	9	-11	-3
CC1CC(C)CN(C(=O)COC(=O)Cc2c[nH]c3ccccc23)C1 (stereo unspecified)	4	5611	3.5	4	4	-10	-4
COc1ccc(OCC(=O)Nc2ccccc2C(=O)N2CCOCC2)cc1	11	4053	4.9	7	7	-13	37
Cc1ccn2cc(-c3ccc(Br)cc3)nc2c1	7	3626	4.3	12	7	-43	17
CCCNC(=O)CNC(=O)c1ccc(C#N)cc1	6	3990	6.0	5	-7	-37	x
COc1ccc(CCNC(=O)c2cccn2C)cc1	0	6424	2.0	13	0	-36	3
Cc1ccc(OCC(=O)NC(=S)Nc2cccc(C)n2)cc1	9	2443	6.5	11	0	-20	-4
COC(=O)C1C(=O)CC(C)(O)C(C(=O)OC)C1c1ccc2c(c1)OCO2 (stereo unspecified)	1	8338	4.4	6	0	-14	-1

Screening results from PubChem.
